Source: PubChem (Fisher Drug Discovery Resource Center)
NPYLR7 ag: mosquito NPYLR7 agonism; AID 1259423; 0.15% of 270,000 active; activation, % at 10 µM; HEK293T NPYLR7/Galpha15, GCaMP6s calcium fluorescence; in the data active = activation above about 40%;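 also: 0% = vehicle and 100% = reference agonist at the receptor; some compounds past the cut are filed as inactive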
NPYLR7 ag max-min: further read-out of NPYLR7 ag, marked with its call; activation, %; measured here: Max-Min RFU normalised activation; some inactives read as strong as hits;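 span of the calcium signal over five minutes; 0% = vehicle and 100% = native peptide agonist; compound fluorescence can raise it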
Active calls of the source: *; & = joins results of further samples. An excerpt; the hit share may differ from the screen's.

SMILES	NPYLR7 ag	NPYLR7 ag max-min
Cc1ncc(CO)c(CO)c1O	-2	-6
O=C(CC1=CCCCC1)NC1CCN(CC2CCOC2)CC1 (stereo not given)	5	3
CCC(=O)C1=C(c2ccc([N+](=O)[O-])cc2)N(C(=O)CC)n2c(CC)nnc2S1	4	1
CC1C(=O)N(c2ccc3c(c2)CCC3)CCN1C(=O)c1ccc(Cl)cc1Cl (stereo not given)	4	11
O=C(CSc1ccc2nnc(-c3ccccn3)n2n1)OCc1ccccc1	1	0
O=C(O/N=C1/CCOc2ccccc21)c1ccc(Cl)c(Cl)c1	10	9
CCCc1[nH]ncc1C(=O)N1CCOC(CCCC(C)C)C1 (stereo not given)	7	6
O[C@H]1CN(Cc2cccc3nonc23)C[C@@H]1N1CCN(c2ccccn2)CC1	0	-5
CO/N=C(/C(=O)N1CCC(NC(=O)OC(C)(C)C)C1)c1csc(NC=O)n1 (stereo not given)	3	0
Nc1ccccc1N1CCCC1	-1	-3
Cn1nc(-c2nc3c4c5c(sc4[nH]c(=O)n3n2)CCC5)c2ccccc2c1=O	4	1
CN1CC2(CCCN(C(=O)c3ccc(N(C)C)c4ccccc34)CC2)OC1=O (stereo not given)	4	1
COc1cccc(C2CCCCN2S(=O)(=O)c2cn(C)cn2)c1 (stereo not given)	2	1
CC1CCCCN1C(=O)CCn1ccnn1 (stereo not given)	20	14
CC(=O)N1c2ccccc2C(C)(C)C2CCC(C)CC21 (stereo not given)	-2	-5
Cc1cccc(CNCc2c(-c3ccccc3)noc2N2CCCC2)c1	34	30
CC(C)Nc1ccc(C(=O)NCc2cccc(F)c2)cn1	4	2
O=C1C(C(c2ccccc2)N2CCCCC2)Sc2nc(-c3ccco3)nn21 (stereo not given)	-1	-5
Cc1ccccc1NC(=O)CSCc1c(C)noc1C	7	3
COC(=O)c1ccc(C(=O)OCCCc2nc3ccc([N+](=O)[O-])cc3[nH]2)cc1	1	3
Cc1cc(C(=O)O)ccc1NC(C)c1cc(Cl)ccc1Cl (stereo not given)	14	12
CC(=O)Oc1cccc(/C=C2N=C(/C=C/c3ccc(C)cc3)OC\2=O)c1	-1	-5
Cc1nc(Cl)cc(NC(C)c2ccc(Cl)c(Cl)c2)n1 (stereo not given)	-3	-7
CCN1CCN(c2c(CN(C(=O)CCl)C(C)C)c(C)nn2-c2ccccc2)CC1	16	30
Cc1noc(C)c1CCCNC(=O)c1ccc(-c2ccccc2CO)nc1	-4	-7
CCOC(=O)C(O)(c1ccc(N(CC)C(=O)OC(C)C)cc1)C(F)(F)F (stereo not given)	5	5
CC(C)=CC(=O)N1CCC(c2cn(Cc3ccc(C(F)(F)F)cc3)c3ccccc23)CC1	0	1
O=C(NC1CC1)C1CCCN(c2ccc(-c3ccccc3)nn2)C1 (stereo not given)	-9	-15
O=C(NC1CCCc2ccccc21)c1cc2n(n1)CCN(Cc1cccc(Cl)c1)C2=O (stereo not given)	-10	-11
Cc1cccnc1CC(C)N(C)C(=O)c1cc(C)c2nc(N)sc2c1 (stereo not given)	-4	-7

The final six entries of the part before are carried over, then new ones follow.
SMILES	NPYLR7 ag	NPYLR7 ag max-min
Cc1noc(C)c1CCCNC(=O)c1ccc(-c2ccccc2CO)nc1	-4	-7
CCOC(=O)C(O)(c1ccc(N(CC)C(=O)OC(C)C)cc1)C(F)(F)F (stereo not given)	5	5
CC(C)=CC(=O)N1CCC(c2cn(Cc3ccc(C(F)(F)F)cc3)c3ccccc23)CC1	0	1
O=C(NC1CC1)C1CCCN(c2ccc(-c3ccccc3)nn2)C1 (stereo not given)	-9	-15
O=C(NC1CCCc2ccccc21)c1cc2n(n1)CCN(Cc1cccc(Cl)c1)C2=O (stereo not given)	-10	-11
Cc1cccnc1CC(C)N(C)C(=O)c1cc(C)c2nc(N)sc2c1 (stereo not given)	-4	-7
COc1ccccc1-c1ccnc(-n2ncc(C(=O)NCc3cccc(F)c3)c2C2CC2)n1	-10	-11
CCOc1ccnc2c1c(=O)n(CC(=O)NC)c(=O)n2C	-5	-8
Cc1cccc(Cn2nc(C)cc2NC(=O)c2ccc(=O)[nH]c2)c1	3	3
COC(=O)CCCCC(=O)N1CCC(c2nc(-c3ccc(C)cc3)no2)CC1	4	-1
CCC/C=C/C(=O)NS(=O)(=O)c1cc(C#N)ccc1C	1	0
COc1ccc(Cl)c2sc(N(CCN(C)C)C(=O)c3ccno3)nc12	12	28
O=C1Nc2c(c(=O)[nH]c(=O)n2Cc2ccccc2)C1(O)C(F)(F)F (stereo not given)	-7	-12
O=C(Nc1cccc2c1CCCC2)C(=O)c1ccc(C2CCCCC2)cc1	-13	-20
Cc1ccc(NC(=O)CN2CCc3ccccc32)cc1F	8	6
COc1ccc(N2CC(NC(=O)N3CCC(O)CC3)CC2=O)cc1OC (stereo not given)	6	4
Cc1cc(C)nc(SCC(=O)c2c(-c3ccccc3)cc3ccccn23)n1	6	4
CC1CCC2(CC1)NC(=O)N(CN(C)Cc1ccccc1Br)C2=O (stereo not given)	0&7	1&4
CC(Cl)C(=O)Nc1nnc(SCc2cccc(Cl)c2F)s1 (stereo not given)	22	31
Brc1ccc(-c2csc(N3CCCCC3)n2)s1	10	13
CCCC(=O)OCC(O)CN(CCN1CCOCC1)Cc1cccn1Cc1cccc(F)c1 (stereo not given)	9	7
CCN(CCn1cccn1)C(=O)C1CCN(c2ccccc2)C1=O (stereo not given)	2	-1
Cc1ccc(Cn2cnc3c(cnn3CCNC(=O)c3cccs3)c2=O)cc1	-3	-10
N#Cc1ccc(CON=Cc2ccc(OC(F)F)cc2)cc1	7	5
C=CCn1cnc2c1c(=O)n(C)c(=O)n2C	6	4
O=C(Nc1n[nH]c(Cc2ccccc2)n1)N1CCN(C(=O)c2ccccc2)CC1	8	5
Cc1ccnc(SCc2cc(=O)c(OC(=O)c3ccc([N+](=O)[O-])cc3)co2)n1	-14	-10
C=CCc1cc(OCC)cc(CN2CCSCC2)c1O	-2	-5
CC1CCN(C(=O)N2CCN(S(=O)(=O)N(C)C)CC2)CC1	7	4
O=C(/C=C/c1ccccc1)N1CCC2(CC1)SCCN2C(=O)c1ccc(C(F)(F)F)cc1	-5	-4
COCCN(Cc1ccccc1C)C(=O)C1CCCC1	1	-1
CC(C)(C)OC(=O)N1CCC(Oc2ccc(NC(=O)c3cccc(Br)c3)cc2)C1 (stereo not given)	-9	-13
Oc1cc(O)c(/C=N\Nc2nc(N3CCOCC3)nc(N3CCOCC3)n2)cc1Br	0	-7
CN(CCOc1ccc(Cl)cc1)Cc1nc(N)c2c3c(sc2n1)CCCC3	6	5
CCC(C(=O)NCc1cc(F)cc2c(C)c(C)[nH]c12)n1cccn1 (stereo not given)	13	7
Cc1ccc(CN(Cc2ccc(F)cc2)CC(O)COCc2ccccc2)s1 (stereo not given)	24	29
Cc1ccc(S(=O)(=O)NC(=O)C2(C)CCN2C(=O)Cc2cccs2)nc1 (stereo not given)	8	7
COCCCN(C(=O)c1ccc(Cl)cc1Cl)C(C)c1nc2ccccc2c(=O)n1-c1ccc(C)c(C)c1 (stereo not given)	21	18
CCN(CC)c1ccc(CN(Cc2ccc(F)cc2)C(=O)Nc2ccccc2OC)c(OS(=O)(=O)c2ccc(OC)cc2)c1	4	5
O=C(Nc1ccccc1)Nc1ccc(Nc2ccc(-n3cccn3)nn2)cc1	-6	-12
Cc1ccc(C)c(OCCCC(C)(C)C(=O)N2CCC(c3ccc(F)cc3)CC2)c1	24	7
O=C(c1ccc(F)c(F)c1)N1CCOC(c2ccccc2)C1 (stereo not given)	-3	-7
Cc1nc(C(=O)N(C)CCc2nc3c(C)cccc3[nH]2)cs1	12	4
O=c1c(S(=O)(=O)c2ccccc2)c[nH]c2c(F)cc(F)cc12	9	10
Cc1c(C(=O)NCCCOC(C)C)cnc2c(-c3c(F)cccc3Cl)cnn12	5	-2
CC(C)c1nc(CN(C)C(=O)c2ccccc2C2CCNC2)cs1 (stereo not given)	9	7
CN(C)c1ccc(CNC(=O)c2ccc3c(c2)CCCC3)cc1	-1	-3
COCCCn1c(C)c(C)n2c3c(=O)n(CC(N)=O)c(=O)n(C)c3nc12	3	5
COc1cccc(SCc2ccc(C(=O)N3C4CCC3CC(Oc3ccc(F)cc3F)C4)cc2)c1 (stereo not given)	4	-6
COC(=O)[C@@H]1Cc2ncn(C(C)C)c2CN1C(=O)c1ccco1	-4	-13
COc1cc(C)c(-n2cnc3ccccc32)cc1C	1	-3

Profiles as entered above:
Results for COc1cc(C)c(-n2cnc3ccccc32)cc1C : NPYLR7 ag = 1; NPYLR7 ag max-min = -3
Results for CCN(CC)c1ccc(CN(Cc2ccc(F)cc2)C(=O)Nc2ccccc2OC)c(OS(=O)(=O)c2ccc(OC)cc2)c1 : NPYLR7 ag = 4; NPYLR7 ag max-min = 5

Further records follow.
SMILES	NPYLR7 ag	NPYLR7 ag max-min
COc1ccc(/C=C/C(=O)c2ccc(O)cc2O)cc1	-17	-17
CCCNC(=O)c1c(C)nn(Cc2ccccc2)c1Cl	-1	-2
CCn1nnc2c(SCc3cc(OC)cc(OC)c3)ncnc21	0	17
CC1ON=C(c2ccc(CN3CCOCC3)cc2)N(Cc2ccc(S(C)(=O)=O)cc2)C1=O (stereo not given)	16	11
CC(C)NC(=O)CC(c1cccc([N+](=O)[O-])c1)c1c[nH]c2ccccc12 (stereo not given)	-3	1
Cc1ccccc1C(=O)Nc1c2c(nn1-c1ccccc1C)CS(=O)(=O)C2	-2	-4
Nc1nc(Sc2ccnc3cc(C(F)(F)F)ccc23)n[nH]1	1	5
CC(C)c1cc(N2CCN(C(=O)c3ccco3)CC2)n2c(nc3ccccc32)c1C#N	1	3
Cn1c(COc2ccccc2O)[n+](C)c2ccccc21	12	12
Cc1nsc(NCCNC(=O)c2cccc(Br)c2)n1	1	17
Cn1nnnc1SC1CCCc2ccccc2C1=O (stereo not given)	6	6
S=c1[nH]nc(-c2cccs2)o1	-2	-5
CCOC(=O)C1(CCOc2ccccc2)CCN(Cc2cccc(-n3cccn3)c2)CC1	7	10
Cc1nn2cc(CCn3cnnc3)nc2s1	7	5
CC(C(=O)N1Cc2cnc(C(C)(C)C)nc2C1)n1cc(Cl)cn1 (stereo not given)	-5	-1
Cc1cc(NC(=O)C2CCN(C(=O)C(C)Sc3ccccc3Cl)CC2)no1 (stereo not given)	3	0
CCCn1c(SCCCC#N)nc2cc(Cl)ccc2c1=O	-4	-4
O=C(CN1CCN(C(=O)c2ccc3c4c(cccc24)CC3)CC1)N1CCCC1	11	5
CCCc1nn(C)c(CC)c1C(=O)N1CCCC(C(=O)OCC)C1 (stereo not given)	-7	-3
CCS(=O)(=O)c1ccccc1C(=O)N(C)Cc1ccc(C(F)(F)F)cc1	-1	15
C=CCn1c(N(C)Cc2ccccc2)nc2c1c(=O)n(C)c(=O)n2C	10	0
Cc1ccc2nc(C)c(C(=O)N(C)Cc3noc(-c4ccccc4)n3)n2c1	0	-1
CCN1CCN(C(c2ccc(F)cc2)c2c(O)cc(C)n(Cc3ccc(OC)cc3)c2=O)CC1 (stereo not given)	9	2
CS(=O)(=O)c1ccc(-c2ccccc2C(=O)NCCc2c[nH]c3ccccc23)cc1	-9	-13
CC(C)(C)n1nc2c(c1NC(=O)CCc1ccccc1)CSC2	-3	-1
Cc1cc2c(=O)n(Cc3ccco3)c(SCC(=O)Nc3ccc(F)cc3)nc2s1	1	1
CCOC(=O)c1cc(-c2ccc(N3CCN(C(=O)COC)CC3)cc2)n(-c2ccc(F)cc2)n1	-7	-8
Cc1csc(NC(=O)Cn2nc(C)cc2C(=O)N2CCOCC2)n1	1	0
CCCCCN1C(=O)/C(=C2\SC(=S)N(c3ccc(Br)cc3)C2=O)c2ccccc21	15	20
CC(C)c1ccc(NC2CCCN(C(=O)CCN3CCCCC3=O)C2)cc1 (stereo not given)	8	7
C=CCOCC(O)CN(Cc1cccc(Cl)c1)CC1CC(c2ccccc2C)=NO1 (stereo not given)	-3	-1
CCOC(=O)C1CCN(C(=O)CCc2ccc(-c3ccc(Cl)cc3)n2-c2ccc(OC)cc2)CC1	1	0
COc1ccc(OC)c(-c2nnc3ccc(OCCNC(=O)Nc4ccc(C)cc4)nn23)c1	-3	-4
COc1ccc(Nc2nc(N(C)C)nc3[nH]ncc23)cc1	1	2
C=CCOC1C[C@](OCc2cccc(OC)c2)(C(=O)NCC2CCCO2)C[C@H]2OC(C)(C)O[C@@H]12 (stereo not given in full)	28	31
CN(C(=O)C1CCN(S(=O)(=O)c2ccc(C(F)(F)F)cc2)CC1)C(c1ccc(F)cc1)c1ccccn1 (stereo not given)	3	-6
COc1ccc(C2=NN(C(=O)CN3CCCC3)C(c3ccc(C)cc3)C2)cc1OC (stereo not given)	-3	4
O=S(=O)(c1ccc(Cl)c(Cl)c1)N1CCNCC1	0	-2
O=C(c1ccc(F)cc1)N1CCN(c2nc(C3CCOCC3)nc3c2cnn3-c2ccccc2)CC1	10	12
Cc1cccc(CN2CCN(c3ccc(-c4ccccc4)cc3)C(=O)C2C)c1 (stereo not given)	6	14
COc1cn(CC(=O)NC(C)C)c(CSc2nc(C)cc(C)n2)cc1=O	-5	-11
O=C(c1ccc([N+](=O)[O-])cc1Cl)N1CCN(C(=O)c2ccc([N+](=O)[O-])cc2Cl)CC1	7	3

Laid out differently: results already given.
SMILES,NPYLR7 ag,NPYLR7 ag max-min
O=C(CN1CCN(C(=O)c2ccc3c4c(cccc24)CC3)CC1)N1CCCC1,11,5
CCCc1nn(C)c(CC)c1C(=O)N1CCCC(C(=O)OCC)C1 (stereo not given),-7,-3
CCS(=O)(=O)c1ccccc1C(=O)N(C)Cc1ccc(C(F)(F)F)cc1,-1,15
